Source: PubChem
2A StopGo: High Throughput Screening for Foot and Mouth Disease Virus Antivirals; human cells with a luciferase reporter of 2A StopGo recoding; control for the full effect not named in the record; Potency, µM (highest dose often 57.9 µM), for inactives: top-dose signal change, negative = less light; hit rate 1.2% among 410,000; AID 1159524, 2015; active = well fitted falling curve with a large enough effect; inconclusive = small, poorly fitted or top-dose-only effect; inactive = no such curve, though single readings can be large or run the other way; tested in HEK293T cells; note: % is set by controls: 0 for no effect and ±100 for the full control effect; nearly all actives have a fitted effect of over 45% in size; luciferase light after 4 h
NS1 function inh: qHTS Assay for Inhibitors of Influenza NS1 Protein Function; S. cerevisiae slowed by influenza A NS1, growth recovery by OD600; Potency, µM (highest dose often 46.1 µM), for the others: at the highest dose activity, positive = more growth; hit rate 0.4% among 270,000; AID 2326, 2010; active means well fitted rising curve with a large enough effect; inconclusive means small, poorly fitted or top-dose-only effect; inactive means no such curve, though single readings can be large or run the other way; note: nearly all actives have a fitted effect of over 50% in size
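S. cerevisiae expressing influenza A NS1, grown in glucose, washed, then diluted 1:100 into pH 6.0 -URA galactose medium with 23 nl compound. Growth recovery read as OD600; NS1-free strain serves as control.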
Marburg entry inh: qHTS for inhibitors of binding or entry into cells for Marburg Virus | Marburg virus pseudotyped entry inhibition, cell reporter; control for the full effect not named in the record; about a third of the inactives were read at about 46 µM | Potency, µM (titrated, usually from 37.8 µM), for inactives: top-dose activity change, negative = inhibition, usual class: inhibitors | hit rate 1.8% among 300,000 | AID 540276, 2011; active = well fitted inhibition curve with a large enough effect; inconclusive = small, poorly fitted or top-dose-only effect, or effect the other way; inactive = flat fitted curve, though single readings scatter; tested in HEK293 cells; about a fifth of its hits are not listed in these tables; note: % is set by controls: 0 for no effect and ±100 for the full control effect; luciferase read-out
Cruzain inh noDet: qHTS Assay for Promiscuous and Specific Inhibitors of Cruzain (without detergent). purified cruzain, Z-FR-AMC fluorescence, no detergent. Potency, µM, without a hit: max response, negative = inhibition, hits mostly inhibitors. hit rate 2.3% among 200,000;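 note: plate controls were enzyme without inhibitor for no effect and buffer without enzyme for full effect; nearly all actives have a fitted effect of over 40% in size; top concentration of the series not given in the record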
Target sequence (P25779 123-467 limits assumed): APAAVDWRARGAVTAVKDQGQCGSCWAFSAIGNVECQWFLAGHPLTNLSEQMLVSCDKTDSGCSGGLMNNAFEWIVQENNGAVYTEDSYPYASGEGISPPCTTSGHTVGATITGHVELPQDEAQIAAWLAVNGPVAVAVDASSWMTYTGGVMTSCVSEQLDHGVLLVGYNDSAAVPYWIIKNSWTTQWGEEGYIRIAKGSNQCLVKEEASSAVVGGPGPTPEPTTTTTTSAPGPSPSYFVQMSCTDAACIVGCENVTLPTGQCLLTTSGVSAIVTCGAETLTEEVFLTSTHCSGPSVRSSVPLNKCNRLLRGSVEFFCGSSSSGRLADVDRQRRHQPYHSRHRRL
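Purified cruzain at 1.5 nM, pre-incubated 15 min with compound at room temperature in 100 mM sodium acetate pH 5.5, 5 mM DTT, 0.00005% Triton X-100. Reaction started with 2 uM Z-FR-AMC; AMC fluorescence increase over 60 s gives rate.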
Cruzain Triton: qHTS Assay for Promiscuous and Specific Inhibitors of Cruzain (with detergent); purified cruzain, Z-FR-AMC fluorescence, 0.01% Triton; Cruzipain (Trypanosoma cruzi), P25779; Potency, µM, for inactives: max response, negative = inhibition, usual class: inhibitors; hit rate 0.43% among 200,000;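 note: plate controls were neutral wells for no effect and buffer without enzyme for full effect; nearly all actives have a fitted effect of over 40% in size; top concentration of the series not given in the record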
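Read-out: AMC fluorescence (360 nm excitation, 450 nm emission), four reads over 2 min, first-to-third difference used. Conditions: cruzain 1.5 nM, Z-FR-AMC 2 uM, pH 5.5 acetate, 5 mM DTT, 0.01% Triton X-100.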
SARS PLP yeast: qHTS of Yeast-based Assay for SARS-CoV PLP. S. cerevisiae expressing SARS-CoV PLpro, growth rescue; control for the full effect not named in the record. Potency, µM (top dose mostly 32.9 µM), without a hit: top-dose activity, positive = growth rescue. hit rate 0.19% among 330,000; active means well fitted rising curve with a large enough effect; inconclusive means small, poorly fitted or top-dose-only effect; inactive means no such curve, though single readings can be large or run the other way; note: 0% is about no effect; nearly all actives have a fitted effect of over 55% in size; growth read by luminescence after 48 h
Lassa entry inh: qHTS for Inhibitors of binding or entry into cells for Lassa Virus; Potency, µM (top dose mostly 37.9 µM), inactives show top-dose activity change, negative = inhibition, usual class: inhibitors; Lassa virus pseudotype entry inhibition, cell reporter; control for the full effect not named in the record; hit rate 1.2% among 300,000; active means well fitted inhibition curve with a large enough effect; inconclusive means small, poorly fitted or top-dose-only effect, or effect the other way; inactive means flat fitted curve, though single readings scatter; tested in HEK293 cells; note: % is set by controls: 0 for no effect and ±100 for the full control effect; nearly all actives have a fitted effect of over 50% in size; luciferase read-out
RE007 growth inh: qHTS Assay for Inhibitors of the HIV-1 protein Vpr; Potency, µM (highest dose often 92.2 µM), for inactives: at the highest dose activity change, negative = less growth; S. pombe RE007 Vpr strain, BacTiter-Glo ATP luminescence, 24 h; control for the full effect not named in the record; hit rate 0.21% among 360,000; AID 651644, 2012; active = well fitted falling curve with a large enough effect; inconclusive = small, poorly fitted or top-dose-only effect; inactive = no such curve, though single readings can be large or run the other way;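 note: % is set by controls: 0 for no effect and ±100 for the full control effect; nearly all actives have a fitted effect of over 50% in size; the assay follows cell death caused by Vpr and the record does not say whether a fall means rescue or toxicity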
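Fission yeast strain RE007, carrying one chromosomally integrated HIV-1 vpr copy, was seeded at OD 0.01 in PMG+AL medium with 23 nL pinned compound. After 24 h at 30 °C and 99% humidity, viability was read by BacTiter-Glo luminescence.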
* hit, by the source's call; u = inconclusive; x = no result given; [ ] = another dose, or the depositor's remark. Unless noted, calls come from the whole dose curve; as a rule, active = well fitted curve in the direction sought with a large enough effect; inconclusive = small, poorly fitted or top-dose-only effect, or another doubt; inactive = no such curve, though single readings can be large; an effect the other way counts as inactive or inconclusive. Potency is the fitted concentration of half-maximal effect.

Each structure is followed by: 2A StopGo | NS1 function inh | Marburg entry inh | Cruzain inh noDet | Cruzain Triton | SARS PLP yeast | Lassa entry inh | RE007 growth inh
- Cc1ccc(CNc2ncnc3c2c(-c2ccccc2)cn3-c2ccccc2)cc1
    u | x | x | -7.1% | -0.8% | x | 1.5%[46.1 µM] | x
- O=C(c1cc(-c2ccccn2)nc2ccc(Br)cc12)N1CCc2ccccc2C1
    x | 2.2% | 0.1% | -1.0% | -1.5% | -6.7% | x | x
- CC(C)(C)OC(=O)N1CCC(c2c(C(=O)NC3CCN(Cc4ccccc4)CC3)cnn2-c2ccc(F)cc2F)CC1
    -1.2% | x | x | -1.0% | -2.0% | x | -9.2%[46.1 µM] | x
- COC(=O)Cc1csc(NC(=O)CSc2nncn2C)n1
    -9.3% | x | 2.9%[46.1 µM] | x | x | 3.5% | -7.8%[46.1 µM] | -13.9%
- CCn1c2ccccc2c2cc(NC(=O)COC(=O)C3CCC(=O)N3)ccc21 (stereo not drawn)
    -3.3% | -8.9% | -23.6% | u | -2.0% | -2.3% | -2.1% | 19.7%
- O=c1cc(N2CCN(c3cccc(Cl)c3)CC2)[nH]c(=O)n1C1CCCCC1
    -8.8% | -0.1% | 6.0% | -1.4% | 0.0% | 1.4% | 0.4% | -0.8%
- Cc1cc2nc(-c3ccco3)cc(C(F)(F)F)n2n1
    -20.2% | -5.2% | x | 10.2% | -4.2% | -5.5% | x | -10.1%
- CCOC(=O)C1(Cc2ccccc2)CCN(Cc2ccc3c(c2)OCCO3)CC1
    -20.0% | -0.5% | -2.7%[46.1 µM] | x | x | 1.3% | -0.9% | -4.5%
- CCOC(=O)C1CCCN(C(=O)CNS(=O)(=O)c2ccc(Br)s2)C1 (stereo not drawn)
    57.8%[activator] | -7.1% | 10.4% | -11.4% | 0.8% | 8.9% | 27.1% | -3.2%
- COc1ccc(-c2nc(CS(=O)(=O)CC(=O)Nc3cccc(C(C)=O)c3)c(C)o2)cc1
    1.7% | 23.7% | x | x | x | -4.7% | x | 1.9%
- Cn1c(N)c(C(=O)COC(=O)c2ccco2)c(=O)n(C)c1=O
    5.8% | 1.4% | 16.5% | -2.1% | 3.6% | 6.0% | 7.4% | -3.8%
- COc1ccc(-n2cc(C(=O)OCc3ccc(F)c(F)c3)c3ccccc3c2=O)cc1
    -11.8% | x | x | -14.7% | 5.3% | x | -0.1%[46.1 µM] | x
- CS(=O)(=O)c1ccc(C(=O)N2CCN(S(=O)(=O)c3ccc(C4CCCCC4)cc3)CC2)cc1
    u | x | 6.5% | x | x | x | 3.8% | 4.7%
- COCCCNC(=O)CN1C(=O)COc2ccc(S(=O)(=O)N3CC(C)CC(C)C3)cc21 (stereo not drawn)
    5.2% | -5.6% | 13.0%[46.1 µM] | x | x | -1.0% | 10.3%[46.1 µM] | 2.8%
- Cc1occc1-c1nnc(SCC(=O)O)n1-c1ccccc1
    -5.1% | 14.1% | x | x | x | 1.1% | x | 1.0%
- CC(NC(=O)c1cc(COc2ccc3ncccc3c2)on1)c1ccc(F)cc1 (stereo not drawn)
    1.78µM* | -1.7% | x | x | x | -1.2% | x | -6.9%
- O=C(CC(c1ccccc1)c1ccccc1O)NCc1ccco1 (stereo not drawn)
    -5.2% | u | 10.4% | 0.9% | -2.1% | 1.8% | 3.8% | 1.9%
- CC(=O)c1ccc(NC(=O)NNS(=O)(=O)c2ccc(F)cc2)cc1
    9.7% | 3.0% | -12.8% | x | x | 3.1% | -9.8% | 2.4%
- CCc1ccc(N2C(=O)C3C4C=CC(CC4)C3C2=O)cc1 (stereo not drawn)
    21.1% | -10.3% | x | x | x | -0.9% | x | 12.8%
- O=C(CSc1nc(-c2ccc(F)cc2)[nH]c1-c1ccccc1)NCC1CCCO1 (stereo not drawn)
    -27.9% | x | -19.8%[46.1 µM] | -6.3% | -7.6% | x | -3.6%[46.1 µM] | x
- Cc1cc(C(=O)NNS(=O)(=O)c2ccc(C(C)(C)C)cc2)nn1C(C)(C)C
    -14.7% | 4.5% | x | x | x | 0.7% | x | 0.1%
- CNC(=O)COC(=O)c1[nH]c(C)c(C(C)=O)c1C
    15.7% | -2.2% | 3.0% | -4.2% | 6.3% | -1.5% | 12.9%[14.3 µM] | -0.6%
- COC(=O)c1ccc(-c2ccco2)n1Cc1cccc(C)c1
    -13.1% | -0.3% | u | 3.5% | -7.7% | -23.0% | 0.6% | -14.9%
- CCOC(=O)c1c(C)[nH]c(C)c1S(=O)(=O)N(C)CC(=O)Nc1cccc(C)c1
    -2.1% | -8.7% | x | x | x | -0.7% | x | 6.8%
- O=C(CCl)Nc1cccc(Oc2cnccn2)c1
    u | 2.1% | x | x | x | u | x | 27.9%
- O=C1NC(=Nc2ccc(F)cc2)CS1
    10.4% | x | -9.2%[46.1 µM] | x | x | 0.1% | 8.7% | -4.7%
- Cc1ccc(S(=O)(=O)NCC(=O)N(CC(=O)NCC2CCCO2)C2CCCC2)cc1 (stereo not drawn)
    -1.8% | 2.5% | 29.3% | 5.9% | 4.3% | -3.5% | 9.3% | 11.9%
- O=C(CN1C(=O)CCS(=O)(=O)c2ccccc21)NCc1ccccc1
    -1.8% | 5.7% | -1.9% | 5.2% | -0.1% | 6.6% | -8.7% | 6.2%
- CCOc1ccc(C(=O)Nc2nnc(C)s2)cc1OCC
    -16.5% | -7.3% | -2.8% | 9.4% | -0.3% | -3.7% | 18.5% | -3.4%
- COC(=O)C1=C(N)OC2=C(C(=O)CCC2)C1c1cccnc1 (stereo not drawn)
    -21.7% | 3.6% | 2.4%[46.1 µM] | x | x | 0.4% | 24.2% | 27.1%
- O=c1n(Cc2ccccc2)nc2n1-c1ccccc1SC2
    0.0% | -6.8% | x | x | x | -1.9% | x | -19.7%
- COc1ccccc1NC(=O)C1CCN(S(C)(=O)=O)CC1
    -16.3% | 13.1% | x | x | x | -1.9% | x | 8.6%
- COc1ccc(/C=N/NC(=O)c2cccc(NC(=O)c3ccc(Cl)cc3)c2)c(OC)c1
    -3.5% | 23.5% | u | u | -7.0% | -3.6% | -1.0% | -1.2%
- CC(NC(=O)c1ccnn1C)C1CCCO1 (stereo not drawn)
    -10.8% | -0.5% | x | x | x | 0.3% | x | -1.0%
- COc1cccc(C(=O)N2C[C@H]3C[C@@H](C2)c2cccc(=O)n2C3)c1
    -16.9% | 2.1% | x | x | x | -1.7% | x | 3.1%
- Cc1cc(Nc2ccc(C)c(C)c2)n2cnnc2n1
    10.4% | x | -2.1%[46.1 µM] | -1.8% | 4.2% | x | -1.2%[46.1 µM] | x
- Cc1ccccc1CN1CCN(S(=O)(=O)c2cccc3nsnc23)CC1
    u | -12.7% | x | x | x | -4.4% | x | 3.0%
- CC1CCCC(n2c(=S)[nH]c3ccccc3c2=O)C1C (stereo not drawn)
    4.1% | u | u | -5.5% | -8.8% | -10.3% | -5.0% | -13.1%
- CC1CCN(CC(=O)N2c3ccccc3CC2C)CC1 (stereo not drawn)
    -7.2% | x | u | x | x | -0.3% | 4.0% | -3.1%
- CNc1nc(SCc2ccccc2)nc(N2CCOCC2)n1
    -13.3% | -122.1% | -8.4% | 7.0% | -5.9% | -25.4% | -9.0% | -16.9%
- O=P(c1cccs1)(c1cccs1)c1cccs1
    18.9% | u | 18.7% | 1.3% | 4.7% | 0.9% | 10.1% | 0.3%
- COc1ccc(S(=O)(=O)C(C#N)c2nc3ccccc3nc2N2CCCCC2)cc1 (stereo not drawn)
    0.0% | -51.2% | 3.0% | -18.4% | -7.5% | -1.1% | 2.6% | -0.1%
- CCN(CC)S(=O)(=O)c1cc(NC(=O)CCNC(=O)c2ccco2)ccc1C
    -14.5% | u | -4.7%[46.1 µM] | x | x | u | 1.4%[46.1 µM] | -13.7%
- COc1ccc(C2C(C(C)=O)=C(Nc3ccccc3)CC(C)(O)C2C(C)=O)cc1OC (stereo not drawn)
    -19.7% | 7.9% | -3.6% | -1.4% | -5.4% | 22.6% | -1.1% | -13.4%
- O=c1cc(-c2ccccc2)n2c(SCc3ccc([N+](=O)[O-])cc3)nnc2[nH]1
    23.1% | x | x | -9.3% | 0.4% | x | 0.2%[46.1 µM] | x
- C/C(=N\Nc1ccccc1[N+](=O)[O-])c1ccccc1O
    33.7%[activator] | -6.5% | u | x | x | u | 9.2%[46.1 µM] | 2.1%
- Cc1ccc2c(c1)c(=O)c1ccccc1n2CCCC(=O)Nc1ccc(Cl)cc1C
    0.0% | x | x | 1.6% | 0.0% | x | -5.5%[46.1 µM] | x
- Cc1nnc(SCC(=O)NCC(=O)Nc2ccc(F)c(F)c2F)n1Cc1ccccc1
    -6.0% | x | 17.4%[46.1 µM] | x | x | 0.5% | -11.2% | -3.3%
- CCOc1ccc(S(=O)(=O)c2cn(C)c3cc(OC)c(OC)cc3c2=O)cc1
    -14.8% | -1.7% | x | x | x | 1.2% | x | 0.0%
- C/C(Cl)=C/Cn1c(SC(C)C)nc2c1c(=O)[nH]c(=O)n2C
    -15.9% | -8.6% | -15.7%[46.1 µM] | -10.5% | -4.1% | -2.2% | 0.6% | -15.2%

Later entries:
Each structure is followed by: 2A StopGo | NS1 function inh | Marburg entry inh | Cruzain inh noDet | Cruzain Triton | SARS PLP yeast | Lassa entry inh | RE007 growth inh
- Cc1cccc(NC(=O)CSc2nc3ccc(NC(=O)CSc4nnnn4-c4ccccc4)cc3s2)c1C
    x | 7.3% | 4.4% | u | -2.4% | -2.4% | x | x
- COc1ccccc1Nc1nc2ccccc2[nH]1
    18.7% | -50.3% | -21.6%[46.1 µM] | -13.0% | -5.7% | -2.1% | u | -18.7%
- Cc1cc(C)c(C#N)c(SC2CCCCC2=O)n1 (stereo not drawn)
    x | -3.2% | 1.6% | -8.8% | 1.2% | 0.1% | -5.7% | -14.0%
- COc1ccc(C(C2C(=O)CC(C)(C)CC2=O)C2C(=O)CC(C)(C)CC2=O)cc1
    -20.8% | 14.5% | x | x | x | 1.4% | x | 0.2%
